# Source: PubChem (National Center for Advancing Translational Sciences (NCATS))
# TRPML1 inh: human mucolipin-1 channel inhibition | 390,000 tested, 0.02% active | TRPML1-inducible cells, Ca2+ dye fluorescence, FDSS; stronger effect = lower value; inhibition of EC80 agonist-evoked calcium signal | activity change, negative = inhibition, % (concentration not given with the values); in the data active means activity change below about -50%; inconclusive means about -30% to -50%; inactive means above about -30%;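 note: stimulus is agonist 54-4 at its EC80 concentration; % is set by controls: 0 for no effect and ±100 for the full control effect; compound concentration not given in the record; the text of the record puts the active cut at -80%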
# Target sequence (Q9GZU1 whole entry, looked up): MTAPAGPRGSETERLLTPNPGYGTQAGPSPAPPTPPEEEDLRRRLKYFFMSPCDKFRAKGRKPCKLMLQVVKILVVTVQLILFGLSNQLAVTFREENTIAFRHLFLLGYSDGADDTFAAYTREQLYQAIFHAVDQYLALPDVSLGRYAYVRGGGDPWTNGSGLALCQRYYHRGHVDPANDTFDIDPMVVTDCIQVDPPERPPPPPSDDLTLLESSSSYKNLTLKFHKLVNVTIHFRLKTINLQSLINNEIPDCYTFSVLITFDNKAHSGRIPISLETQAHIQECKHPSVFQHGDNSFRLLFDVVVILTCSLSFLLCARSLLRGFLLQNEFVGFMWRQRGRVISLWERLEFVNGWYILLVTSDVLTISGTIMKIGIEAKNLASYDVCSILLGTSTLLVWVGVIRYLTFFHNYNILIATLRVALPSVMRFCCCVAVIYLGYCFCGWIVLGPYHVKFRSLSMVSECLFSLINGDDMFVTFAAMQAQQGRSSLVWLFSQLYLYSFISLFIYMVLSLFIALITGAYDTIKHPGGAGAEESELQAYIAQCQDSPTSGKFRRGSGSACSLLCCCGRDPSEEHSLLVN
#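 TRPML1-DL cells, Tet-induced overnight (~16 h, 37 °C) at 1,500 cells/well, were loaded with Ca8 no-wash dye plus quencher for 45-90 min at room temperature. Compounds were pinned during FDSS kinetic reading; agonist 54-4 at EC80 (4 uM final) then added.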
# Six1-Eya2 blk: blocks human Six1 binding to Eya2; Q15475+O00167; AlphaScreen GST-Six1/His-Eya2 binding, biochemical; stronger effect = lower value; control for the full effect not named in the record; activity change, % (no concentration beside the values); 360,000 tested, 0.56% active; AID 651725; in the data active = activity change below about -65%; inconclusive = about -30% to -65%; inactive = above about -30%; note: % is set by controls: 0 for no effect and ±100 for the full control effect; compound concentration not given in the record
#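 Six1/Eya2 binding was read as AlphaScreen signal after compounds were pinned into GST-Six1 plus His-tagged Eya2 (5X stock 250/500 nM) in pH 8.0 Tris/NaCl/TCEP buffer, beads added, then incubated 1 h, 37 C, dark.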
# CtBP-E1A inh: CtBP/E1A binding inhibition | 340,000 tested, 0.49% active | activity change, % (no concentration beside the values) | AlphaScreen GST-E1A/His-CtBP binding, 1536-well; stronger effect = lower value; control for the full effect not named in the record | AID 651724; in the data active means activity change below about -65%; inconclusive means about -30% to -65%; inactive means above about -30%; note: % is set by controls: 0 for no effect and ±100 for the full control effect; compound concentration not given in the record
#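 Homogeneous bead-based format: GST-tagged E1A captured on glutathione donor beads, His-tagged CtBP on nickel acceptor beads; compounds precede bead addition by 2 h at 37 °C.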
# D2 PAM: potentiates the human D2 dopamine receptor allosterically | DiscoveRx D2 beta-arrestin cells, luminescence, 90 min; 100% = 57 uM dopamine signal | potentiation, % (concentration not given with the values) | 360,000 tested, 0.23% active; active = potentiation of 50% or more; inconclusive = 30% to 50%; inactive = 30% or less;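 note: compound concentration not given in the record; tested on top of an EC20 dose of dopamine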
# Target sequence (P14416 whole entry, looked up): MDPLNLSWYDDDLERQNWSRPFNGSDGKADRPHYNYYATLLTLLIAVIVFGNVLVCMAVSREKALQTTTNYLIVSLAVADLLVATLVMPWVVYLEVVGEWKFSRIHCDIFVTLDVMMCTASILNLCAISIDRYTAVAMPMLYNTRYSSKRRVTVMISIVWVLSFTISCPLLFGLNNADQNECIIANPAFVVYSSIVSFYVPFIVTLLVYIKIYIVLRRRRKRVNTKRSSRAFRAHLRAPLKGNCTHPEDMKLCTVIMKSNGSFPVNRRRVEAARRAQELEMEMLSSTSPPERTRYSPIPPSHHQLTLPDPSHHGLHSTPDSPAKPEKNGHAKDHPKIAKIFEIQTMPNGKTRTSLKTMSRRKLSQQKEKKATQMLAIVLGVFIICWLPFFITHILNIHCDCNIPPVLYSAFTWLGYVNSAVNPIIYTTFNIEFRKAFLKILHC
#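 PathHunter beta-arrestin assay in DiscoveRx D2 cells. Compounds were added with an EC20 of dopamine (50 nM final) for 90 min at 37 deg C. Luminescence was read 1 h after detection reagent, with 57 uM dopamine as the EC100 control.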
# TRPML1 ag: activates the human TRPML1 channel; Q9GZU1; TRPML1-expressing cells, Ca2+ dye fluorescence, FDSS; host cell line not named in the record; reference of the full effect not given here; activation, % (no concentration beside the values); 410,000 tested, 0.12% active; AID 624414; in the data active = activation above about 50%; inconclusive = about 30% to 50%; inactive = below about 30%; note: 0% is about no effect; the text of the record puts the active cut at 80%
#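 In this qHTS format, compounds were pin-transferred onto Ca8-dye-loaded TRPML1-DL cells induced with Tet overnight, and intracellular Ca2+ fluorescence was recorded kinetically for 110 s after a 10 s baseline. A subsequent 4uM final 54-4 (EC80) addition followed by a second 110 s read served as the antagonist phase.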
# TRPV1 potentiator: enhances activation of the human vanilloid receptor TRPV1; TRPV1-expressing cells, Fluo-8 calcium influx, capsaicin EC20 potentiation; host cell line not named in the record; control for the full effect not named in the record; potentiation, % at 8.33 µM; 320,000 tested, 0.02% active; AID 540277; active means potentiation above 80%; inconclusive means 30% to 80%; inactive means below 30%; note: 0% is about no effect
#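 Fluo-8 calcium influx in TRPV1-expressing cells, kinetic read (ex 480/em 520 nm). Compound added and read 3 min for agonist activity, followed by capsaicin at EC20 final and 2 min further read for enhancement.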
# The depositor's hits bear a star; ? = inconclusive; . = not tested or not shown; & = joins results of further samples.
# Short forms – A = TRPML1 inh; B = Six1-Eya2 blk; C = CtBP-E1A inh; D = D2 PAM; E = TRPML1 ag; F = TRPV1 potentiator
> O=C(NCC1CCN(Cc2cccc(Cl)c2)CC1)Nc1ccc(Cl)cc1
  A: -13 | B: -8 | C: . | D: -8 | E: 0.5 | F: -24
> Cc1cc(C(F)(F)F)cc(NNC(=O)NC(=O)c2ccccc2Cl)n1
  A: 29 | B: -4 | C: . | D: 0 | E: 1.5 | F: 0
> Cc1cc(NC(=O)Cc2csc(-c3ccccc3)n2)ccc1Br
  A: 9 | B: 6 | C: -1 | D: -1 | E: 4.7 | F: 12
> COC(=O)Cc1csc(NC(=O)CSc2nnc3ccccn23)n1
  A: -1 | B: 0 | C: . | D: -4 | E: -0.2 | F: 20
> N#Cc1ccc[n+](CC(=O)c2ccc(NC(=O)c3ccccc3)cc2)c1
  A: 14 | B: 4 | C: -1 | D: -6 | E: 0.1 | F: -7
> CC(C)c1ccc(NC(=O)C(c2ccccc2)N(C)C(=O)c2cnccn2)cc1 (centres undefined)
  A: -17 | B: 2 | C: -16 | D: -11 | E: -0.7 | F: 0
> O=C(NCCc1nnc2ccc(NCCCN3CCOCC3)nn12)c1ccccc1
  A: -3 | B: -4 | C: 0 | D: -23 | E: -0.5 | F: -1
> NC(N)=NCCCc1cn(CC(=O)N2CCNCC2)nn1
  A: -4 | B: 2 | C: 1 | D: -8 | E: -0.1 | F: -13
> CCOc1ccc(CNC(=O)Cn2c(=O)c3cccn3c3ccccc32)cc1
  A: -7&17 | B: 8 | C: 7 | D: -4 | E: -1.2&2.3 | F: 12
> CN(C)CCCNC(=O)C[C@H]1C[C@H](C(=O)N2CCOCC2)[C@@]2(C)c3[nH]c4cc(CCC(=O)N(C)C)ccc4c3CCN2C1=O
  A: -15 | B: 1 | C: -19 | D: -2 | E: -0.4 | F: .
> CCOC(=O)c1cc2c(N)c(C(=O)c3ccc(Br)cc3)sc2[nH]c1=O
  A: 7 | B: ? | C: . | D: -13 | E: -0.3 | F: ?
> CC(NC(=O)C12CC3CC(CC(C3)C1)C2)C(=O)NN=Cc1ccc([N+](=O)[O-])o1 (centres undefined)
  A: -21 | B: 2 | C: 3 | D: -11 | E: 0.8 | F: .
> Cc1ccc2nc(-c3ccncc3)c(NC3CCCC3)n2c1
  A: -9 | B: -6 | C: -27 | D: -4 | E: 0.4 | F: -25
> CCOC(=O)CN1C(=O)S/C(=C/c2cc(C)n(C)c2C)C1=O
  A: 17 | B: -7 | C: -6 | D: -8 | E: 0.5 | F: .
> Cc1ccc(-n2c(SCC(=O)Nc3cc(C)on3)nc3c(c2=O)SC(C)C3)cc1 (centres undefined)
  A: -7 | B: 3 | C: -1 | D: -2 | E: -0.1 | F: 0
> CCOC(=O)/C(C#N)=C/c1c(N2CCN(c3ccc(OC)cc3)CC2)nc2c(C)cccn2c1=O
  A: -4 | B: -10 | C: -14 | D: -12 | E: -1.2 | F: 6
> COCCCNc1nc2ccccc2nc1NS(=O)(=O)c1ccc(F)cc1
  A: -4 | B: 6 | C: 4 | D: 6 | E: 2.0 | F: ?
> CCC/C(C)=N/NC(=O)c1ccccc1O
  A: 7 | B: -6 | C: -2 | D: -16 | E: -0.4 | F: -1
> O=c1c(Cl)c(N2CCC3(CC2)OCCO3)cnn1C12CC3CC(CC(C3)C1)C2
  A: -4 | B: -2 | C: . | D: 5 | E: 2.9 | F: -9
> COc1ccc(NC2=C(NCCO)C(=O)c3ccccc3C2=O)cc1
  A: -5 | B: -28 | C: -23 | D: -2 | E: 0.2 | F: 7
> C=CCN1C(=O)/C(=C\c2ccc(OC(=O)c3ccco3)c(OC)c2)SC1=S
  A: 13 | B: -9 | C: . | D: -5 | E: 1.4 | F: 10
> CCOC(=O)c1cnc2ccc(Cl)cc2c1Nc1ccc(S(=O)(=O)Nc2ncccn2)cc1
  A: -10 | B: -13 | C: -14 | D: -15 | E: -0.3 | F: 11
> Cc1cc(C)c(-c2cc(C)nc3ncnn23)c(C)c1
  A: -14 | B: 13 | C: 3 | D: -3 | E: -0.1 | F: 4
> COC(=O)c1ccc(NC(=O)c2cccc(Cl)c2)o1
  A: 22 | B: -1 | C: -2 | D: 1 | E: -1.1 | F: 11
> CN(Cc1ccccc1)C(=O)CN1C(=O)C2C3C=CC(C3)C2C1=O (centres undefined)
  A: 16 | B: 4 | C: 13 | D: -1 | E: -0.1 | F: 3
> Cc1c(C(=O)NCCN2CCOCC2)oc2ccc(S(=O)(=O)N3CCCCCC3)cc12
  A: -2 | B: 6 | C: 0 | D: -2 | E: 0.6 | F: 3
> CCOC(=O)CSc1cc(C)nc(N)n1
  A: -4 | B: 4 | C: 1 | D: -3 | E: -0.3 | F: -6
> Cc1c(C(=O)O)cc(C(C)(C)C)n1CCSCCO
  A: -8 | B: 1 | C: 4 | D: -10 | E: 0.0 | F: 2
> COCCNC(=S)N/N=C(\C)CCc1ccc2c(c1)OCO2
  A: -2 | B: -9 | C: 5 | D: -5 | E: 0.4 | F: 27
> C=CCn1c(-c2ccoc2C)n[nH]c1=S
  A: 6 | B: 5 | C: 6 | D: -10 | E: 1.4 | F: 10
> COc1ccccc1C(CNC(=O)CSc1ccc2ccccc2c1)N(C)C (centres undefined)
  A: 10 | B: -19 | C: -1 | D: -27 | E: 7.8 | F: 4
> O=S(=O)(Nc1ccc2nc(C(F)(F)F)[nH]c2c1)c1ccccc1
  A: -16 | B: 2 | C: 8 | D: 2 | E: 2.7 | F: -10
> NC(=O)CC(NC(=O)Cc1ccc(Cl)cc1)c1ccc(NC2CCCCCCC2)c([N+](=O)[O-])c1 (centres undefined)
  A: -9 | B: 0 | C: -8 | D: -8 | E: -0.7 | F: 1
> COc1ccc(C=C(C(=O)O)c2ccc(OC)cc2)cc1
  A: -2 | B: 3 | C: 10 | D: 2 | E: 0.5 | F: .
> CC[C@@H](C)[C@H](NC(=O)CCc1c(C)c2cc3c4c(oc3c(C)c2oc1=O)CCCC4)C(=O)O
  A: -5 | B: -21 | C: . | D: -2 | E: 0.6 | F: 4
> COc1ccc(OCC(=O)NC(CC(=O)O)c2ccc(OC)c(OC)c2)cc1 (centres undefined)
  A: 11 | B: 7 | C: 5 | D: -5 | E: 1.4 | F: 27
> O=C(NCc1cccnc1)Nc1cccc(F)c1
  A: 16 | B: -5 | C: . | D: -8 | E: -0.3 | F: 12
> Cc1ccc(OCc2cc(C(=O)NC3CCc4ccccc43)no2)cn1 (centres undefined)
  A: 14 | B: 3 | C: 0 | D: -7 | E: 1.3 | F: -5
> CCCCC(=O)N(C)c1c(C)nc2ccc(C(=O)N3CCCCC3)cn12
  A: . | B: 9 | C: -20 | D: -18 | E: 0.7 | F: .
> Cc1cccc(-n2c(SCC(=O)O)nc3sc4c(c3c2=O)CCC4)c1
  A: 31 | B: -9 | C: 0 | D: -3 | E: 0.2 | F: 3
> CCCCC1=CC2=CC(=O)C(C)(OC(=O)CC)C(=O)C2=CN1C1CCCC1 (centres undefined)
  A: -11 | B: -2 | C: 0 | D: -25 | E: -0.9 | F: 0
> CCn1c(SCC(=O)N2CCCC(C)C2)nnc1-c1ccco1 (centres undefined)
  A: -1 | B: 2 | C: 0 | D: 0 | E: -0.1 | F: 25
> O=C(CCc1nc2ccccc2s1)OCC(=O)N1CCN(C(=O)c2ccco2)CC1
  A: 23 | B: 5 | C: -3 | D: -2 | E: -0.7 | F: 2
> CC(COc1ccc(/C=C/c2ccccc2)cc1)[N+](C)(C)C (centres undefined)
  A: 12 | B: -5 | C: 1 | D: 6 | E: -0.8 | F: 13
> COc1ccc(CN2C[C@@H](CO)O[C@@H](n3cnc4c(N5CCCC5)ncnc43)C2)cc1
  A: . | B: -9 | C: -8 | D: -3 | E: -0.5 | F: .
> Cc1[nH]c(=O)[nH]c(=O)c1S(=O)(=O)N1CCCC(C(=O)NCc2ccc3c(c2)OCO3)C1 (centres undefined)
  A: 4 | B: 8 | C: . | D: -6 | E: -0.7 | F: ?
> COc1ccc2nc(NC(=O)c3cnccn3)sc2c1
  A: -13 | B: ? | C: ? | D: -4 | E: 3.2 | F: -8
> O=C(Nc1cccc(O)c1)c1cc(-c2ccc3c(c2)OCO3)on1
  A: -15 | B: 21 | C: 0 | D: -12 | E: 1.1 | F: -1
> c1ccc(-n2ncc3c(NCCCN4CCOCC4)ncnc32)cc1
  A: -1 | B: -9 | C: -15 | D: -20 | E: -0.2 | F: -5
> C=CCn1c(=O)n(CCC#N)c(=O)n(CCC#N)c1=O
  A: 3 | B: 3 | C: 7 | D: 4 | E: -0.9 | F: 8

# Additional entries follow:
# Short forms – A = TRPML1 inh; B = Six1-Eya2 blk; C = CtBP-E1A inh; D = D2 PAM; E = TRPML1 ag; F = TRPV1 potentiator
> COc1ccc(C)cc1N(CC(=O)N/N=C/c1ccccc1C(=O)O)S(=O)(=O)c1ccccc1
  A: 30 | B: -13 | C: . | D: -5 | E: 1.3 | F: -13
> COc1ccc(CNc2n[nH]c(NCc3ccc(OC)c(OC)c3)n2)cc1OC
  A: -7 | B: -2 | C: -5 | D: -34 | E: -1.1 | F: 1
> COc1ccc2nc(C)c3c(c2c1)OC(C)C3 (centres undefined)
  A: -1 | B: -6 | C: -1 | D: -14 | E: -1.3 | F: -12
> COc1ccc(Cl)cc1CNC[C@H]1O[C@@H](n2cnc3c(=O)[nH]c(N)nc32)[C@H](O)[C@@H]1O
  A: . | B: -16 | C: -4 | D: -7 | E: 0.0 | F: .
> Cc1ccc(N=Nc2c(O)ccc3n[nH]nc23)cc1
  A: 29 | B: -9 | C: . | D: 4 | E: 3.1 | F: 6
> C=CCNC(=O)/C(=C\c1ccc2c(c1)OCO2)NC(=O)c1ccc(Br)cc1
  A: -18 | B: 9 | C: 17 | D: -5 | E: 1.0 | F: 10

# No new results follow: entries from further up.
# Short forms – A = TRPML1 inh; B = Six1-Eya2 blk; C = CtBP-E1A inh; D = D2 PAM; E = TRPML1 ag; F = TRPV1 potentiator
> COc1ccc(CNc2n[nH]c(NCc3ccc(OC)c(OC)c3)n2)cc1OC
  A: -7 | B: -2 | C: -5 | D: -34 | E: -1.1 | F: 1
> COc1ccc2nc(C)c3c(c2c1)OC(C)C3 (centres undefined)
  A: -1 | B: -6 | C: -1 | D: -14 | E: -1.3 | F: -12

# Reformatted with bars between the fields: entries from further up
SMILES | TRPML1 inh | Six1-Eya2 blk | CtBP-E1A inh | D2 PAM | TRPML1 ag | TRPV1 potentiator
COc1ccc(C)cc1N(CC(=O)N/N=C/c1ccccc1C(=O)O)S(=O)(=O)c1ccccc1 | 30 | -13 | . | -5 | 1.3 | -13
COc1ccc(CNc2n[nH]c(NCc3ccc(OC)c(OC)c3)n2)cc1OC | -7 | -2 | -5 | -34 | -1.1 | 1
COc1ccc2nc(C)c3c(c2c1)OC(C)C3 (centres undefined) | -1 | -6 | -1 | -14 | -1.3 | -12
COc1ccc(Cl)cc1CNC[C@H]1O[C@@H](n2cnc3c(=O)[nH]c(N)nc32)[C@H](O)[C@@H]1O | . | -16 | -4 | -7 | 0.0 | .
Cc1ccc(N=Nc2c(O)ccc3n[nH]nc23)cc1 | 29 | -9 | . | 4 | 3.1 | 6
C=CCNC(=O)/C(=C\c1ccc2c(c1)OCO2)NC(=O)c1ccc(Br)cc1 | -18 | 9 | 17 | -5 | 1.0 | 10

# Hits appear at their usual frequency; about 0.95% have a hit in one of these screens.
